Compound activity: PubChem, National Center for Advancing Translational Sciences (NCATS)
NS1 inh: inhibitors of influenza NS1 protein function. actives 0.4% (n = 270,000). Potency, µM (doses to about 46.1 µM), for inactives: at the top dose activity, positive = more growth. S. cerevisiae slowed by influenza A NS1, growth recovery by OD600. AID 2326; active means well fitted rising curve with a large enough effect; inconclusive means small, poorly fitted or top-dose-only effect; inactive means no such curve, though single readings can be large or run the other way; further: nearly all actives have a fitted effect of over 50% in size
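Recovery from NS1-induced slow growth read by OD600 in budding yeast switched to galactose assay medium (pH 6.0, -URA) at 1:100 dilution. Compound 23 nl per well; the matching strain lacking NS1 serves as control.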
Lassa entry inh: blocks Lassa virus binding to or entry into cells | Potency, µM (doses to about 37.9 µM), without a hit: at the highest dose activity change, negative = inhibition, most hits filed as inhibitors | AID 540256 | Lassa virus pseudotype entry inhibition, cell reporter; control for the full effect not named in the record | actives 1.2% (n = 300,000); active means well fitted inhibition curve with a large enough effect; inconclusive means small, poorly fitted or top-dose-only effect, or effect the other way; inactive means flat fitted curve, though single readings scatter; tested in HEK293 cells; further: on the % scale 0 is the no-effect control and ±100 the full control effect; nearly all actives have a fitted effect of over 50% in size; luciferase read-out
RE007 growth inh: less growth of the S. pombe RE007 Vpr strain; actives 0.21% (n = 360,000); Potency, µM (top dose mostly 92.2 µM), for the others: top-dose activity change, negative = less growth; S. pombe RE007 Vpr strain, BacTiter-Glo ATP luminescence, 24 h; control for the full effect not named in the record; active = well fitted falling curve with a large enough effect; inconclusive = small, poorly fitted or top-dose-only effect; inactive = no such curve, though single readings can be large or run the other way;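 further: on the % scale 0 is the no-effect control and ±100 the full control effect; nearly all actives have a fitted effect of over 50% in size; the assay follows cell death caused by Vpr and the record does not say whether a fall means rescue or toxicity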
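Fission yeast RE007 carrying one integrated HIV-1 vpr copy, seeded at OD 0.01 in PMG+AL medium with 23 nL pinned compound. Grown 24 h at 30 degrees; viability read by BacTiter-Glo luminescence after 5 min.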
Cruzain Triton: inhibitors of Trypanosoma cruzi cruzain with detergent; P25779; purified cruzain, Z-FR-AMC fluorescence, 0.01% Triton; Potency, µM, inactives show max response, negative = inhibition, actives largely listed as inhibitors; actives 0.43% (n = 200,000); AID 1478;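 further: plate controls were neutral wells for no effect and buffer without enzyme for full effect; nearly all actives have a fitted effect of over 40% in size; top concentration of the series not given in the record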
Target sequence (P25779 123-467 limits assumed): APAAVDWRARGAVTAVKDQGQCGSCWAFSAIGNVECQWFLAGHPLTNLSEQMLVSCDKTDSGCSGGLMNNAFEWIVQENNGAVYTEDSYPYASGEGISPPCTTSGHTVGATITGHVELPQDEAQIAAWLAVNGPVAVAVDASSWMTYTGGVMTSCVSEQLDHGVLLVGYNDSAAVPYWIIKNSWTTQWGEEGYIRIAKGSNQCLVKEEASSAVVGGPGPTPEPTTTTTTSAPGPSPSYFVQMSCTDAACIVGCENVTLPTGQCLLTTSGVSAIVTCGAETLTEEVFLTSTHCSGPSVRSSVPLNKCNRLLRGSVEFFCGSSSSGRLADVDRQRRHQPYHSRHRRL
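Z-FR-AMC hydrolysis (2 uM substrate) by cruzain (1.5 nM) monitored kinetically at ex 360/em 450 nm after 15 min room-temperature compound exposure; 0.01% Triton X-100, pH 5.5, 5 mM DTT.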
SARS PLP yeast: blocks SARS-CoV papain-like protease in a yeast assay; S. cerevisiae expressing SARS-CoV PLpro, growth rescue; control for the full effect not named in the record; Potency, µM (titrated, usually from 32.9 µM), without a hit: at the highest dose activity, positive = growth rescue; actives 0.19% (n = 330,000); active means well fitted rising curve with a large enough effect; inconclusive means small, poorly fitted or top-dose-only effect; inactive means no such curve, though single readings can be large or run the other way; further: 0% is about no effect; nearly all actives have a fitted effect of over 55% in size; growth read by luminescence after 48 h
2A StopGo: FMDV 2A StopGo reporter, luciferase signal. human cells with a luciferase reporter of 2A StopGo recoding; control for the full effect not named in the record. Potency, µM (doses to about 57.9 µM), for the others: top-dose signal change, negative = less light. actives 1.2% (n = 410,000); active = well fitted falling curve with a large enough effect; inconclusive = small, poorly fitted or top-dose-only effect; inactive = no such curve, though single readings can be large or run the other way; tested in HEK293T cells; further: on the % scale 0 is the no-effect control and ±100 the full control effect; nearly all actives have a fitted effect of over 45% in size; luciferase light after 4 h
Marburg entry inh: Marburg virus entry inhibition. actives 1.8% (n = 300,000). Marburg virus pseudotyped entry inhibition, cell reporter; control for the full effect not named in the record; about a third of the inactives were read at about 46 µM. Potency, µM (titrated, usually from 37.8 µM), for inactives: at the highest dose activity change, negative = inhibition, usual class: inhibitors; active = well fitted inhibition curve with a large enough effect; inconclusive = small, poorly fitted or top-dose-only effect, or effect the other way; inactive = flat fitted curve, though single readings scatter; tested in HEK293 cells; about a fifth of its hits are not listed in these tables; further: on the % scale 0 is the no-effect control and ±100 the full control effect; luciferase read-out
Cruzain noTriton: inhibitors of Trypanosoma cruzi cruzain without detergent; AID 1476; Potency, µM, inactives show max response, negative = inhibition, hits mostly inhibitors; actives 2.3% (n = 200,000); purified cruzain, Z-FR-AMC fluorescence, no detergent; P25779;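 further: plate controls were enzyme without inhibitor for no effect and buffer without enzyme for full effect; nearly all actives have a fitted effect of over 40% in size; top concentration of the series not given in the record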
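Purified cruzain at 1.5 nM, pre-incubated 15 min with compound at room temperature in 100 mM sodium acetate pH 5.5, 5 mM DTT, 0.00005% Triton X-100. Reaction started with 2 uM Z-FR-AMC; AMC fluorescence increase over 60 s gives rate.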
* marks the source's active call; other numbers are inactive results; u = inconclusive; x = not tested or not shown; & = joins results of further samples; [ ] = dose if it differs, or a comment. Unless noted, the call rests on the fitted dose curve; in most records, active means well fitted curve in the direction sought with a large enough effect; inconclusive means small, poorly fitted or top-dose-only effect, or another doubt; inactive means no such curve, though single readings can be large; an effect the other way counts as inactive or inconclusive. Potency means the concentration at half of the fitted maximal effect. Rows are unselected; any-hit rate near 4.6%.

Start of the data: the first two records (preview)
Every second line gives: NS1 inh	Lassa entry inh	RE007 growth inh	Cruzain Triton	SARS PLP yeast	2A StopGo	Marburg entry inh	Cruzain noTriton
- N#Cc1c(NC(=S)NC(=O)c2ccccc2)sc2c1CCN(CCc1ccccc1)C2
  u	-5%	x	-15%	3%	x	-1%	16µM*
- N#Cc1nc(-c2ccco2)oc1N1CCN(c2cccc(Cl)c2)CC1
  9%	-13%	-4%	-22%	-10%	x	-29%	u

The list itself, previewed entries included:
Every second line gives: NS1 inh	Lassa entry inh	RE007 growth inh	Cruzain Triton	SARS PLP yeast	2A StopGo	Marburg entry inh	Cruzain noTriton
- N#Cc1c(NC(=S)NC(=O)c2ccccc2)sc2c1CCN(CCc1ccccc1)C2
  u	-5%	x	-15%	3%	x	-1%	16µM*
- N#Cc1nc(-c2ccco2)oc1N1CCN(c2cccc(Cl)c2)CC1
  9%	-13%	-4%	-22%	-10%	x	-29%	u
- C=CCSc1nnc(NC(=O)COc2ccc3ccccc3c2)s1
  2%	25%	-6%	4.3%	3%	x	16%	13µM*
- COc1ccc(N=Nc2[nH]c3ccc(C)cc3c2O)cc1
  -2%	u	-19%	-2.9%	-4%	44%[activator]	u	-1%
- COc1ccc(NC(=O)/C(C#N)=C/C=C/c2ccco2)cc1
  -15%	u	-16%	-2.7%	-6%	-3%	u	9%
- CC(Sc1ccccc1)C(=O)Nc1ccccc1C(=O)N1CCOCC1 (stereo not given)
  9%	-12%	16%	3.2%	0%	0%	u	-1%
- O=C1NC(=O)c2cc(NC(=O)C3COc4ccccc4O3)ccc21 (stereo not given)
  4%	x	-1%	x	1%	-24%	x	x
- CC(C)(C)C1=Nn2c(nnc2-c2ccco2)SC1
  3%	11%	5%	3.2%	0%	32%[activator]	25%	-1%
- CC/C(=C\C(=O)c1cccnc1)Nc1ccc(C)c(C)c1
  -86%	-30%	7%	-3.6%	-1%	u	3%	-6%
- O=C(O)CC1S/C(=N/N=C/C2CC=CCC2)NC1=O (stereo not given)
  6%	-9%[46.1 µM]	-1%	x	-1%	-11%	u	x
- CCOC(=O)N1CCC(NC(=O)C(NS(=O)(=O)c2ccc3c(c2)CCN3C(=O)CC)C(C)C)CC1 (stereo not given)
  x	-11%	-3%	x	7%	12%	u	x
- COc1ccc(S(=O)(=O)N2CCCCCC2)cc1C(=O)N(C)CC(=O)Nc1ccccc1Cl
  x	8%	2%	x	-3%	1%	-18%	x
- Cc1ccccc1C(c1ccccc1Cl)N(C)C (stereo not given)
  x	1%	12%	x	x	0%	17%	x
- COc1cccc(-c2cccc(NC(=O)C3CCN(Cc4ccon4)CC3)c2)c1
  2%	x	-7%	x	-1%	3%	x	x
- CCOc1ccc(NS(=O)(=O)c2cc(C(=O)N(CC)CC(=O)NCc3cccs3)ccc2C)cc1
  x	-20%[46.1 µM]	8%	x	0%	29%	u	x
- Cc1ccc(/C=N/n2c(COc3ccccc3)n[nH]c2=S)cc1
  1%	x	7%	x	0%	-10%	x	x
- CC(=O)Oc1ccc(C(=O)Nc2ccc(S(=O)(=O)N3CCOCC3)cc2)cc1
  0%	u	-25%	x	-5%	-14%	u	x
- Cc1cnc(C(=O)Nc2ccccc2-c2ccc(C)o2)cn1
  -13%	u	-27%	1.2%	6%	-8%	-3%	8%
- CCCc1cc(C(=O)NCc2cccs2)no1
  -90%	x	-2%	3.5%	-2%	84%[activator]	-2%	6%
- CCCOc1ccc(C(=O)Nc2cccc(-c3nc4ccccc4[nH]3)c2)cc1
  x	-17%[46.1 µM]	x	-2.7%	x	u	1%[46.1 µM]	-13%
- CC(=O)NS(=O)(=O)c1ccc(NC(=S)NC(=O)c2ccco2)cc1
  11%	-20%	8%	0.3%	-4%	-16%	-5%[46.1 µM]	2%
- CCOC(=O)/C(C#N)=C/c1cc(C)n(-c2ccc(Br)cc2)c1C
  14%	x	x	-1.6%	2%	x	5%	u
- Cn1c(SCC(=O)N2CCOCC2)nnc1-c1cccc(NC(=O)c2ccccc2F)c1
  2%	-1%	-26%&17%	1.9%	13%	-9%	8%	-5%
- CCCCNC(=O)c1sc(=S)n2c1[nH]c(=O)c1ccc(C(=O)NCCc3ccc(OC)c(OC)c3)cc12
  27%	x	0%	x	7%	u	x	x
- CCOC(=O)C1=C(CC)OC(N)=C(C#N)C1c1ccc(OC)c(OC)c1OC (stereo not given)
  x	u	18%	x	1%	7%	1%[46.1 µM]	x
- Cc1cccc(/C=C/c2onc(C)c2[N+](=O)[O-])n1
  x	-28%	u	x	x	14µM*	-4%[46.1 µM]	x
- Cc1ccc(S(=O)(=O)c2nnn3c2nc(N2CCN(c4ccccc4F)CC2)c2cc(Cl)ccc23)cc1C
  x	x	x	0.8%	x	10%	-19%[46.1 µM]	u
- C[n+]1c(-c2ccccc2)cc2c(=Cc3ccc([N+](=O)[O-])cc3)c3ccccc3n21
  x	10µM*	-27%	x	x	u	u	x
- CCC(=O)c1ccc(Oc2ccc(C(=O)c3ccc(C)cc3)cc2[N+](=O)[O-])cc1
  19%	u	9%	-1.9%	-2%	-31%	u	8%
- O=S(=O)(NCC1(N2CCOCC2)CCCCC1)c1ccc(Cl)cc1C(F)(F)F
  -2%	1%	-5%	x	2%	24%	1%	x

Profiles from above.
Shown for CCOC(=O)/C(C#N)=C/c1cc(C)n(-c2ccc(Br)cc2)c1C : NS1 inh: 14%; Lassa entry inh: x; RE007 growth inh: x; Cruzain Triton: -1.6%; SARS PLP yeast: 2%; 2A StopGo: x; Marburg entry inh: 5%; Cruzain noTriton: u
Shown for CCOC(=O)C1=C(CC)OC(N)=C(C#N)C1c1ccc(OC)c(OC)c1OC (stereo not given) : NS1 inh: x; Lassa entry inh: u; RE007 growth inh: 18%; Cruzain Triton: x; SARS PLP yeast: 1%; 2A StopGo: 7%; Marburg entry inh: 1%[46.1 µM]; Cruzain noTriton: x

Next part:
Every second line gives: NS1 inh	Lassa entry inh	RE007 growth inh	Cruzain Triton	SARS PLP yeast	2A StopGo	Marburg entry inh	Cruzain noTriton
- CN(CC(=O)Nc1c(Cl)cccc1Cl)C(=O)C1=COCCO1
  x	5%	-15%	x	-1%	-11%	15%	x
- O=Cc1cccn1-c1cccc([N+](=O)[O-])c1
  5%	15%	-1%	x	0%	-16%	-1%[46.1 µM]	x
- Cc1cccc(Cn2nnc3c(=O)[nH]c(C4CCCN(C(=O)c5ccc(C(C)(C)C)cc5)C4)nc32)c1 (stereo not given)
  x	-15%[46.1 µM]	x	-13%	x	u	u	12%
- CCC(NC(=O)NNC(=O)c1ccncc1)(C(F)(F)F)C(F)(F)F
  -2%	0%	2%	x	-2%	6%	-17%	x
- CCOc1cc(/C=N/O)cc(Br)c1OCc1ccc(Cl)cc1
  -2%	u	0%	-6.8%	-14%	0%	u	-8%
- Cc1cc(Nc2ccccc2)c2c([N+](=O)[O-])ccc(C)c2n1
  -23%	1%[46.1 µM]	-22%	-6.5%	-123%	-12%	0%[46.1 µM]	-13%
- CN(C(=O)c1ccc(OC2CCN(CCc3ccccc3)CC2)cc1)C1CCCCC1
  -5%	3%	1%	x	0%	8%	-3%	x
- O=c1ccc2cc(O[C@@H]3O[C@@H](CO)[C@H](O)[C@@H](O)[C@@H]3O)c(O)cc2o1
  4%	15%[46.1 µM]	7%	x	-1%	6%	6%[46.1 µM]	x
- O=C(CN1CCCCCC1)Nc1cccc(NC(=O)CN2CCCCCC2)c1
  10%	x	-7%	x	2%	-1%	x	x
- CCC(=O)Nc1cccc(-n2nnnc2SCC(=O)N2CCCCC2)c1
  -2%	1%	-13%	x	0%	16%	0%	x
- O=C(NCCCCCCNC(=O)c1cncc(O)c1)c1cncc(O)c1
  -3%	24%	-9%	x	1%	-6%	1%[46.1 µM]	x
- C=CCn1c(C)cc(C(=O)CSc2nc(N)cc(N)n2)c1C
  8%	x	17%	x	-1%	35%[activator]	x	x
- O=C(c1cccc(S(=O)(=O)NCc2ccccc2)c1)N1CCN(c2cccc(C(F)(F)F)c2)CC1
  u	u	-30%	x	3%	u	u	x
- COc1ccc(OC)c(C(=O)NC(CC(N)=O)c2ccc(N3CCN(c4ccccc4)CC3)c([N+](=O)[O-])c2)c1 (stereo not given)
  2%	x	4%	x	1%	-25%	x	x
- CCC(C)n1c(O)c(C=NCc2cccnc2)c(=O)[nH]c1=S (stereo not given)
  -1%	-27%[46.1 µM]	6%	x	0%	-17%	12%[46.1 µM]	x
- COc1cc(Cl)c(C)cc1NC(=O)COc1ccc(C)nc1[N+](=O)[O-]
  x	u	-7%	x	-3%	69%[activator]	21%	x
- C=CCOc1nc2c(c(=O)n(C)c(=O)n2C)n1Cc1c(Cl)cccc1Cl
  4%	u	19%	-2.0%	9%	u	-3%&-3%&-3%	3%
- Cc1nn(CC(=O)NNC(=S)NCC2CCCO2)c(C)c1Br (stereo not given)
  6%	-10%[46.1 µM]	21%	x	u	10%	6%[46.1 µM]	x
- COC(=O)c1ccc(CNC(=O)c2ccc3oc(C(C)C)nc3c2)cc1
  -5%	u	-2%	x	-3%	55%[activator]	8%	x
- O=C(Cc1c(F)cccc1Cl)NC1=NCCS1
  x	-6%[46.1 µM]	-24%	x	-1%	5%	u	x
- O=C(Nc1ccccc1)Nc1nc(-c2ccccc2)cs1
  -6%	x	-11%	x	-1%	-3%	x	x
- COc1ccc(N2CCN(c3ncnc4c3[nH]c3ccccc34)CC2)cc1
  6%	u	7%	-8.1%	x	4µM*	u	-5%

Limited to Cruzain Triton, Cruzain noTriton and RE007 growth inh, for two of the compounds above:
| Structure | Cruzain Triton | Cruzain noTriton | RE007 growth inh |
| --- | --- | --- | --- |
| O=C(Nc1ccccc1)Nc1nc(-c2ccccc2)cs1 | x | x | -11% |
| COc1ccc(N2CCN(c3ncnc4c3[nH]c3ccccc34)CC2)cc1 | -8.1% | -5% | 7% |
